AmpC nodet inh: inhibitors of E. coli AmpC beta-lactamase without detergent; P00811; Potency, µM (highest dose often 28.7 µM), for the others: at the top dose activity change, negative = inhibition; hit rate 1.8% among 71,000; AmpC nitrocefin hydrolysis, absorbance 480 nm, no detergent; potencies from a single point are estimates; active = falling curve, for most hits resting on a single point; inconclusive = weak or doubtful change; inactive = flat or rising curve; note: % of control where 0% means no effect; about half of the hits show no inhibition at the top dose; a quarter of the inactives give rising signals
Target sequence (P00811 whole entry, looked up): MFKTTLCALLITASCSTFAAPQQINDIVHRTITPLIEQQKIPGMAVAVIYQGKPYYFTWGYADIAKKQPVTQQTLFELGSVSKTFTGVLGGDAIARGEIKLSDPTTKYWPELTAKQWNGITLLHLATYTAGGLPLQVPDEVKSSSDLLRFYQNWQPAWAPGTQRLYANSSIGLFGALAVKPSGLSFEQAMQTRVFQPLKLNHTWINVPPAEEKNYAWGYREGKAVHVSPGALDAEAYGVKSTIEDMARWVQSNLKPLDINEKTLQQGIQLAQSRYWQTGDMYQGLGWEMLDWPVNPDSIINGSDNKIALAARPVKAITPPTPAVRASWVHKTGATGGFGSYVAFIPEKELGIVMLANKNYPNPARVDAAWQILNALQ
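AmpC in 20 mM phosphate buffer pH 7.0 was preincubated 15 min at room temperature with compounds. Nitrocefin (800 uM stock) was then added and hydrolysis followed at 480 nm every 20 s for 4 min.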
Active calls of the source: *; ? = inconclusive; & = joins results of further samples; [ ] = dose if it differs, or a comment. Potency is the fitted concentration of half-maximal effect. An excerpt; the hit share may differ from the screen's.

COc1cc(NC(=O)C2CC(c3cccc(OC)c3OC)=NO2)cc(OC)c1OC (stereo not drawn)
- AmpC nodet inh: 74%
Cc1ccc(C(=O)C2=C(O)C(=O)N(CCCN3CCOCC3)C23C(=O)N(C)c2ccccc23)o1 (stereo not drawn)
- AmpC nodet inh: 3%
COCc1cc(C)nc(Nc2ccc(C)c(C)c2)c1C#N
- AmpC nodet inh: -1%
C/C(Cl)=C\Cn1c(N2CCCCCC2)nc2c1c(=O)n(C)c(=O)n2C
- AmpC nodet inh: 123%
CCCCn1c(SCC(=O)NCCc2ccc(OC)c(OC)c2)nc2c1c(=O)n(C)c(=O)n2C
- AmpC nodet inh: 47%
CCOc1cc(-c2c(C)c(CC)nc(N)c2C#N)ccc1O
- AmpC nodet inh: 8%
CCOC(=O)c1nc(NCc2cccnc2)c2ccccc2n1
- AmpC nodet inh: -4%
C=CCn1c(CCNC(=O)c2cccs2)nnc1SCC(=O)Nc1cccc(C(C)=O)c1
- AmpC nodet inh: 27%
COc1ccc(C(=O)Nc2ccc(OC)c(OC)c2)cc1
- AmpC nodet inh: 6%
O=C(CSc1n[nH]c(=O)[nH]c1=O)c1ccccc1
- AmpC nodet inh: -7%

COc1ccc(Oc2ncc3nc(C)c(=O)n(CCc4ccccc4)c3n2)cc1
- AmpC nodet inh: 18%
O=C1CCCC/C1=C/Nc1ccc2c(c1)OCO2
- AmpC nodet inh: 2%
Cc1ccccc1NC(=O)CN(C)S(=O)(=O)c1cccc2cccnc12
- AmpC nodet inh: 12%
O=C(CS(=O)CC(=O)Nc1cccc2c1CCCC2)Nc1ccc(F)cc1 (stereo not drawn)
- AmpC nodet inh: 5%
CC(C)C(C(=O)NCc1ccco1)N(C(=O)CNS(=O)(=O)c1ccc(Cl)cc1)C1CCCC1 (stereo not drawn)
- AmpC nodet inh: 9%
O=C(NCc1cccnc1)c1cccc(Cl)c1
- AmpC nodet inh: -13%
COc1cccc(CNCc2ccccn2)c1OC
- AmpC nodet inh: -2%
CC(C(=O)NCCC1=CCCCC1)N1C(=O)c2ccccc2C1=O (stereo not drawn)
- AmpC nodet inh: 8%
CC(c1ccccc1)n1cc(C(=O)NCCCn2ccnc2)nn1 (stereo not drawn)
- AmpC nodet inh: -2%
Cc1noc(C)c1CSc1nc2cc(S(=O)(=O)N3CCOCC3)ccc2o1
- AmpC nodet inh: 83%

3 structures from above, arranged by number of heavy atoms, smallest number first.
CCOc1cc(-c2c(C)c(CC)nc(N)c2C#N)ccc1O
- AmpC nodet inh: 8%
C=CCn1c(CCNC(=O)c2cccs2)nnc1SCC(=O)Nc1cccc(C(C)=O)c1
- AmpC nodet inh: 27%
CC(C)C(C(=O)NCc1ccco1)N(C(=O)CNS(=O)(=O)c1ccc(Cl)cc1)C1CCCC1 (stereo not drawn)
- AmpC nodet inh: 9%

Additional records follow.
O=C(NCC12CC3CC(CC(C3)C1)C2)c1nn2c(c1Cl)NC(c1ccco1)CC2C(F)(F)F (stereo not drawn)
- AmpC nodet inh: 19%
COC(=O)C(NS(=O)(=O)c1ccc(NC(C)=O)cc1)C(C)C (stereo not drawn)
- AmpC nodet inh: 9%
O=C(NCc1ccc2c(c1)OCO2)C1CC(=O)N(c2ccc(O)cc2)C1 (stereo not drawn)
- AmpC nodet inh: -1%
CC(=O)Nc1c(C(=O)O)oc2ccccc12
- AmpC nodet inh: -11%
CCN(CC)CCNC(=O)c1ccc(NC(C)=O)cc1
- AmpC nodet inh: 2%
CCCNC(C)(C)COC(=O)c1ccccc1
- AmpC nodet inh: 4%[12.8 µM]
Cc1cnc(CNc2ncnc3ccc(-c4ccoc4)cc23)cn1
- AmpC nodet inh: 40%
O=C(O)CCCC(=O)Nc1ccc(C(=O)NCc2cccnc2)cc1
- AmpC nodet inh: -2%
CCn1c2c(c3cc(Br)ccc31)CCC/C2=N\O
- AmpC nodet inh: -15%
CCC#CCOCC(=S)Nc1ccccc1
- AmpC nodet inh: 2%

COc1cc(-c2[o+]c3cc(O)cc(O)c3cc2O)cc(O)c1O
- AmpC nodet inh: -14%[5.75 µM]
CSc1ncc(Cl)c(C(=O)Nc2nnc(SC)s2)n1
- AmpC nodet inh: -4%
CCc1c2c(nc3cccc(C(C)C)c13)-c1cccc(=O)n1C2
- AmpC nodet inh: 117%
COc1ccccc1N1CCN(C(=O)C2CC=CCC2C(=O)O)CC1 (stereo not drawn)
- AmpC nodet inh: -10%
COc1cccc(CNn2cnnc2)c1OCc1ccc(F)cc1
- AmpC nodet inh: 19%
CC(C)C(=O)Nc1cc(=O)[nH]c2ncnn12
- AmpC nodet inh: 2%
CCCCc1cc(=O)oc2cc(C)cc(OCc3nn[nH]n3)c12
- AmpC nodet inh: 4%
O=C(NCc1ccccn1)c1cc2cc(Br)ccc2oc1=O
- AmpC nodet inh: 9%
CCOc1ccc(NC(C)=O)cc1N
- AmpC nodet inh: -4%
c1csc(CNc2ncncc2-c2ccc3c(c2)OCO3)c1
- AmpC nodet inh: 9%

CCN(CC)CCCNc1oc(-c2ccc(OC)c(OC)c2)nc1C#N
- AmpC nodet inh: 6%
Cc1c(-c2cccs2)[n+](=O)c2c(n1[O-])CCC2
- AmpC nodet inh: 2%
O=C(Nc1ccc(Cl)cc1C(=O)Nc1ccccn1)c1ccco1
- AmpC nodet inh: -2%
CCCC(Cl)CCCC(Cl)CCC(Cl)CCC(Cl)CCC(Cl)CCCC(Cl)CCC (stereo not drawn)
- AmpC nodet inh: -8%
Cc1ccc(P(=O)(OCCN2CCOCC2)C(C)(C)C)o1 (stereo not drawn)
- AmpC nodet inh: 15%
O=C(CCc1nc(-c2ccccc2F)no1)NCCc1ccccc1Cl
- AmpC nodet inh: 23%
O=C(c1ccccc1)N1CCN(CC#Cc2ccccc2)CC1
- AmpC nodet inh: 54%
CNc1nnc(CSc2nc(C)cc(C)n2)s1
- AmpC nodet inh: 0%
Fc1cc2nccnc2cc1N1CCSCC1
- AmpC nodet inh: 3%
CCC(=O)c1ccc(N2CCN(C(=O)COc3ccc(F)cc3)CC2)c(F)c1
- AmpC nodet inh: 44%

CCCCOC(=O)n1c(SCC(=O)N(CC)CC)nc2ccccc21
- AmpC nodet inh: 96%
CC1=C(C(=O)Nc2ccccc2)C(c2ccc(C)o2)n2c(s/c(=C\c3ccco3)c2=O)=N1 (stereo not drawn)
- AmpC nodet inh: 58%
CC1(C)CC(=O)c2cn3c(nc2C1)nc1ccccc13
- AmpC nodet inh: -16%
O=c1c(O)c(-c2ccc(O)c(O)c2)oc2c(OC[C@H]3O[C@@H](O)[C@@H](O)[C@H](O)[C@@H]3O)c(O)cc(O)c12
- AmpC nodet inh: -12%
CCc1nc(C)ccc1OCC(=O)O
- AmpC nodet inh: 10%
CCOC(C)(C)C
- AmpC nodet inh: -10%
CCOC(=O)CSc1nnc(CNC(=O)c2ccco2)n1C
- AmpC nodet inh: -2%
CCOCCCn1cnc2c(c1=O)c1nc3ccccc3nc1n2-c1ccc(C)cc1
- AmpC nodet inh: 109%
CCN1CCCC1CNS(=O)(=O)c1ccc(C(=O)Nc2ccccc2)cc1 (stereo not drawn)
- AmpC nodet inh: -1%
Cc1cc(C)c(C#N)c(SCC(=O)N(C)C2CCCCC2)n1
- AmpC nodet inh: 23%

Rewritten with tabs: entries from further up
mol	AmpC nodet inh
O=C(NCc1ccccn1)c1cc2cc(Br)ccc2oc1=O	9%
CCOc1ccc(NC(C)=O)cc1N	-4%
c1csc(CNc2ncncc2-c2ccc3c(c2)OCO3)c1	9%
CCN(CC)CCCNc1oc(-c2ccc(OC)c(OC)c2)nc1C#N	6%
Cc1c(-c2cccs2)[n+](=O)c2c(n1[O-])CCC2	2%
O=C(Nc1ccc(Cl)cc1C(=O)Nc1ccccn1)c1ccco1	-2%
CCCC(Cl)CCCC(Cl)CCC(Cl)CCC(Cl)CCC(Cl)CCCC(Cl)CCC (stereo not drawn)	-8%
Cc1ccc(P(=O)(OCCN2CCOCC2)C(C)(C)C)o1 (stereo not drawn)	15%
O=C(CCc1nc(-c2ccccc2F)no1)NCCc1ccccc1Cl	23%
O=C(c1ccccc1)N1CCN(CC#Cc2ccccc2)CC1	54%
CNc1nnc(CSc2nc(C)cc(C)n2)s1	0%
Fc1cc2nccnc2cc1N1CCSCC1	3%
CCC(=O)c1ccc(N2CCN(C(=O)COc3ccc(F)cc3)CC2)c(F)c1	44%
CCCCOC(=O)n1c(SCC(=O)N(CC)CC)nc2ccccc21	96%
CC1=C(C(=O)Nc2ccccc2)C(c2ccc(C)o2)n2c(s/c(=C\c3ccco3)c2=O)=N1 (stereo not drawn)	58%
CC1(C)CC(=O)c2cn3c(nc2C1)nc1ccccc13	-16%
O=c1c(O)c(-c2ccc(O)c(O)c2)oc2c(OC[C@H]3O[C@@H](O)[C@@H](O)[C@H](O)[C@@H]3O)c(O)cc(O)c12	-12%
CCc1nc(C)ccc1OCC(=O)O	10%
CCOC(C)(C)C	-10%
CCOC(=O)CSc1nnc(CNC(=O)c2ccco2)n1C	-2%

Additional records:
O=C1CC(N2CCN(S(=O)(=O)c3cccc(C(F)(F)F)c3)CC2)C(=O)N1Cc1ccccc1 (stereo not drawn)
- AmpC nodet inh: 61%
COc1ccc(C2CC(=O)Nc3ccccc3S2(=O)=O)cc1OC (stereo not drawn)
- AmpC nodet inh: -23%
Nc1nc(SCC(=O)O)[nH]c(=O)c1N
- AmpC nodet inh: -8%[5.75 µM]
CCOC(=O)c1cc(NC(=O)c2ccoc2C)cc(C(=O)OCC)c1
- AmpC nodet inh: 28%
O=C(C1CCN(c2nnc(N3CCCC3=O)s2)CC1)N1CCN(Cc2ccc3c(c2)OCO3)CC1
- AmpC nodet inh: 108%
Cc1cccn2c(=O)c3cc(C(=O)NCCN4CCOCC4)n(Cc4ccccc4)c3nc12
- AmpC nodet inh: -8%
CC(C)c1ccc2oc(-c3ccc(N)cc3)nc2c1
- AmpC nodet inh: 40%
Cc1nn2c(C(F)(F)F)cc(-c3ccc(Cl)cc3)nc2c1C(=O)N1CCOCC1
- AmpC nodet inh: 14%
CCCN1CCN(CCCNC(=O)C2CCCN(c3nc4ccc(OCC)cc4s3)C2)CC1 (stereo not drawn)
- AmpC nodet inh: 112%
CCOC(=O)CN1c2ccccc2NC(=O)CC1C (stereo not drawn)
- AmpC nodet inh: 4µM*[single pt active]

O=C1OCC2=C1C(c1ccc3c(c1)OCO3)Sc1ccccc1N2 (stereo not drawn)
- AmpC nodet inh: -8%
CCN(CC)c1ccc(C=Nc2ccc(C#N)cc2)c(O)c1
- AmpC nodet inh: 11%
OCCN1CCOCCN(CCO)CCOCC1
- AmpC nodet inh: -11%
Cn1c(=O)c2c(nc(CN3CCOCC3)n2CCCO)n(C)c1=O
- AmpC nodet inh: 12%
CCc1c(C)nc2ncnn2c1N1CCC(C(=O)NCc2ccc3c(c2)OCO3)CC1
- AmpC nodet inh: 62%
O=C(CN1CCC(n2nnc3cc(F)ccc32)CC1)NCc1ccco1
- AmpC nodet inh: 22%
CN1CCc2cc3c(cc2[C@@H]1[C@H]1OC(=O)c2c1ccc1c2OCO1)OCO3
- AmpC nodet inh: 40%&32%
Cc1cccc(S(=O)(=O)c2c(N)n(Cc3ccco3)c3nc4ccccc4nc23)c1
- AmpC nodet inh: ?
COc1cc(-c2nc3oc4ccccc4c(=O)c3c(=O)n2Cc2ccco2)cc(OC)c1OC
- AmpC nodet inh: 65%
c1csc(-c2nnc(-c3ccc(N4CCOCC4)cc3)o2)c1
- AmpC nodet inh: 64%

COc1ccc(NC(=O)CSc2nnc(-c3ccccn3)n2N)cc1Cl
- AmpC nodet inh: -8%
CCOC(=O)Nc1c(C(=O)OC)[nH]c2cc(OC)ccc12
- AmpC nodet inh: -21%
CCCc1cc(=O)[nH]c(/N=C(/NC(=O)c2ccccc2)Nc2ccc3c(c2)OCCO3)n1
- AmpC nodet inh: 52%
O=C(Cl)/C=C/C(=O)Cl
- AmpC nodet inh: -1%
COCCNc1cc(C)nc2c(-c3ccccc3OC)c(C)nn12
- AmpC nodet inh: 63%
CCCC[C@@H]1C[C@H]1C(NC(=O)c1ccco1)c1ccccc1C(F)(F)F (stereo partly drawn)
- AmpC nodet inh: -18%
Cn1c(=O)n(CC(=O)NC2CCCCC2)c(=O)c2ccccc21
- AmpC nodet inh: 8%
Cc1ccc2c(c1)NC(=O)C(CC(=O)NCCCN1CCCCC1C)O2 (stereo not drawn)
- AmpC nodet inh: 25%
CC(=O)C1=C(C)NC(SCC(=O)c2ccc(C)cc2)=C(C#N)C1c1ccco1 (stereo not drawn)
- AmpC nodet inh: -12%
CN1CCN(c2ccnc(-c3ccccc3C(F)(F)F)n2)CC1
- AmpC nodet inh: 60%

CCN(C(=O)CSc1nc2nc(C)cc(C)n2n1)c1ccccc1
- AmpC nodet inh: 26%
CN(Cc1cc(Cl)cc(Cl)c1O)Cc1c(O)ccc2ccccc12
- AmpC nodet inh: -7%[5.75 µM]
Cc1csc(SCCn2c(N3CCOCC3)nc3c2c(=O)[nH]c(=O)n3C)n1
- AmpC nodet inh: -12%
COc1cccc(C2=NOC(C(=O)N3CCc4ccccc4C3)C2)c1 (stereo not drawn)
- AmpC nodet inh: 23%
COc1cccc(C=Nc2cccnc2)c1O
- AmpC nodet inh: -8%
Cc1nc(CNS(=O)(=O)c2cccnc2)cs1
- AmpC nodet inh: -2%
Cc1nnc2n(c1=O)C(CS(=O)(=O)c1ccccc1)CS2 (stereo not drawn)
- AmpC nodet inh: -6%
CCOC(=O)c1c(C)[nH]c(C(=O)COC(=O)c2oc3ccc(OC)cc3c2C)c1C
- AmpC nodet inh: 28%
CCN(CC)S(=O)(=O)c1ccc(C(=O)Nc2c3c(nn2C(C)(C)C)CS(=O)(=O)C3)cc1
- AmpC nodet inh: 15%
Nc1ncnc2c1ncn2[C@H]1O[C@@H](C(=O)O)[C@@H](O)[C@H]1O
- AmpC nodet inh: 1%[5.75 µM]
COC(=O)c1ccc(Oc2nc(Nc3ccccc3)nc(N(C)C)n2)cc1
- AmpC nodet inh: 9%
O=C(CN1CCCCCC1=O)OCc1ncc(-c2ccccc2)o1
- AmpC nodet inh: 23%
CCn1nc(-c2ccccc2)nc2c(=O)n(C)c(=O)nc1-2
- AmpC nodet inh: -4%
